Menin-MLL FL inh: qHTS Assay for Inhibitors Targeting the Menin-MLL Interaction in MLL Related Leukemias: Competition With Fluorescein Labeled MLL-derived Peptide | FP activity change, % at 61.4 µM | Fluorescence polarization, fluorescein-MLL peptide displacement from menin | 290,000 tested, under 10 active; inconclusive = falling polarisation curve, or a change in total fluorescence; inactive = total fluorescence flat and polarisation flat or rising; no compound was filed as active; the % refers to the polarisation; negative = inhibition;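 note: % of control where 0% means no effect; inhibitors lower the polarisation; unlabelled MLL peptide was the positive control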
CtBP-E1A inh: qHTS Assay for Inhibitors of the CtBP/E1A Interaction | activity change, % (concentration not given with the values) | AlphaScreen GST-E1A/His-CtBP binding, 1536-well; active compounds read low; control for the full effect not named in the record | AID 651724, 2012 | CtBP / adenovirus E1A interaction (AlphaScreen) | 0.49% of 340,000 active; in the data active means activity change below about -65%; inconclusive means about -30% to -65%; inactive means above about -30%; note: % is set by controls: 0 for no effect and ±100 for the full control effect
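Steps: dispense buffer (Tris pH 8.0, NaCl 300 mM, TCEP 1 mM, BSA, Tween 20); add 5X protein mix (GST-E1A, His-CtBP, 125 nM each); pin 23 nL compound; 2 h at 37 °C, dark; add 5X beads (50 ug/mL); 1 h; read.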
gsp antag: qHTS for Antagonists of gsp, the Etiologic Mutation Responsible for Fibrous Dysplasia/McCune-Albright Syndrome: qHTS; 0.4% of 340,000 active; Potency, µM (highest dose often 76.9 µM), for inactives: at the top dose activity change, negative = inhibition, actives largely listed as inhibitors; gsp-mutant cells, cAMP HTRF, 30 min; control for the full effect not named in the record; active = falling curve of any shape with a large fitted effect; inconclusive = falling curve, mostly with a smaller effect; inactive = flat or rising curve; cell line not stated here;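 note: intracellular cAMP measured with PDE inhibitor Ro 20-1724 present during compound exposure; potency is the fitted concentration of half-maximal effect; % is set by controls: 0 for no effect and ±100 for the full control effect; nearly all actives have a fitted effect of over 65% in size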
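HTRF cAMP read-out (cAMP-d2 plus anti-cAMP antibody-K in lysis buffer, 30 min RT). Before lysis, cells are exposed to compounds with […] for 30 min at 37C in DPBS containing Ca/Mg, BSA and Tween 20.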
gsp ag: qHTS for Agonist of gsp, the Etiologic Mutation Responsible for Fibrous Dysplasia/McCune-Albright Syndrome: qHTS; gsp mutant cells, cAMP HTRF, 30 min; control for the full effect not named in the record; Potency, µM (series often up to 76.9 µM), without a hit: at the top dose activation (cAMP increase), most hits filed as activators; 0.13% of 340,000 active; AID 624287, 2012; active = well fitted activation curve with a large enough effect; inconclusive = small, poorly fitted or top-dose-only effect, or another doubt; inactive = no such curve, though single readings can be large or run the other way; cell line not stated here;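 note: phosphodiesterase inhibitor Ro 20-1724 added with compounds to block cAMP breakdown; potency is the fitted concentration of half-maximal effect; nearly all actives have a fitted effect of over 60% in size; about a fifth of the inactives were tested at one dose only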
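Cells in DMEM/10% FBS with G418 were pretreated with compounds in DMSO plus […] (300 uM stock) for 30 min at 37C. cAMP was measured by HTRF (cAMP-d2 plus anti-cAMP antibody-K) after 30 min at room temperature.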
TRPV1 PAM: HTS Assay for Compounds that Act as Potentiators of the Vanilloid Receptor 1 | Transient receptor potential cation channel subfamily V member 1 (Homo sapiens), Q8NER1 | TRPV1-expressing cells, Fluo-8 calcium influx, capsaicin EC20 potentiation; host cell line not named in the record; control for the full effect not named in the record | potentiation, % at 8.33 µM | 0.02% of 320,000 active; active means potentiation above 80%; inconclusive means 30% to 80%; inactive means below 30%; note: 0% is about no effect
Target sequence (Q8NER1 whole entry, looked up): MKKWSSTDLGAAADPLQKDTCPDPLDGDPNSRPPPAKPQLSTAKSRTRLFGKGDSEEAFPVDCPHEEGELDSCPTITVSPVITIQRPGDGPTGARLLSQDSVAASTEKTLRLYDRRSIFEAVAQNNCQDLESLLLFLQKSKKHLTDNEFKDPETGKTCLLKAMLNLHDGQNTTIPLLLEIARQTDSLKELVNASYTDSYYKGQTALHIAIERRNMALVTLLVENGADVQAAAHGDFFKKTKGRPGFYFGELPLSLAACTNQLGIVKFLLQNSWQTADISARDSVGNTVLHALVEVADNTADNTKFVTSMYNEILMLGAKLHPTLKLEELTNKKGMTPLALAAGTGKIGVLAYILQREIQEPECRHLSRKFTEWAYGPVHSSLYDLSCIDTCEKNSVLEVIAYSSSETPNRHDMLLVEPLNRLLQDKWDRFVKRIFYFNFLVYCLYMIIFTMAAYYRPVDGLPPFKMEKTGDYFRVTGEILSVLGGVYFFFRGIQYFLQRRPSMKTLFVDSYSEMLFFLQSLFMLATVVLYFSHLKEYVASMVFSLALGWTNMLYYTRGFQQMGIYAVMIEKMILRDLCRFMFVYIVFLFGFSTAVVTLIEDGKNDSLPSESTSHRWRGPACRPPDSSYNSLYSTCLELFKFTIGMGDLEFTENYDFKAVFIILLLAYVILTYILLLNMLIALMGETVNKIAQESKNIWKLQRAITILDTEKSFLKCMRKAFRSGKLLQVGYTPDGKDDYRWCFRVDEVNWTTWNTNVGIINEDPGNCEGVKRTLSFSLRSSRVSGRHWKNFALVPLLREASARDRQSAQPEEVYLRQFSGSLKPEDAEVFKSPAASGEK
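TRPV1-expressing cells were cultured overnight at 35.5C and loaded with Fluo-8 calcium dye for 40 to 90 min at room temperature. After a 10 s baseline, compound was added and calcium influx was read kinetically for 3 min (ex 480/em 520 nm).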
Sfp PPTase inh: qHTS Assay for Inhibitors of Bacillus subtilis Sfp phosphopantetheinyl transferase (PPTase) | 4'-phosphopantetheinyl transferase ffp (Bacillus subtilis), Q9F4F7 | Biochemical Sfp PPTase activity, qHTS | Potency, µM, for inactives: max response, negative = inhibition, usual class: inhibitors | 3.5% of 310,000 active | AID 1490, 2009; active = well fitted inhibition curve with a large enough effect; inconclusive = small, poorly fitted or top-dose-only effect, or another doubt; inactive = no such curve, though single readings can be large or run the other way;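 note: the enzyme is Sfp with the accession as filed and its product quenches rhodamine fluorescence; potency is the fitted concentration of half-maximal effect; 0% = enzyme reaction without inhibitor and -100% = no enzyme wells; top concentration of the series not given in the record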
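Step 1, compound plus 15 nM Sfp-PPTase, 15 min, room temperature. Step 2, add rhodamine-CoA (5 uM) and BHQ-2-YbbR (12.5 uM). Step 3, read 525/598 nm fluorescence at 0 and 30 min.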
ClpP mod: qHTS Assay for Activators of ClpP | Potency, µM (titrated, usually from 57.5 µM), for the others: top-dose activity change, negative = active | AID 651965, 2013 | purified B. subtilis ClpP, FRET peptide cleavage, 20 min | ATP-dependent Clp protease proteolytic subunit (Bacillus subtilis (strain 168)), P80244 | 1.9% of 340,000 active; active = well fitted falling curve with a large enough effect; inconclusive = small, poorly fitted or top-dose-only effect; inactive = no such curve, though single readings can be large or run the other way; note: potency is the fitted concentration of half-maximal effect; the source files actives as falling curves though it sought activators and does not explain the sign; nearly all actives have a fitted effect of over 65% in size; many hits overshoot -100%
Target sequence (P80244 whole entry, looked up): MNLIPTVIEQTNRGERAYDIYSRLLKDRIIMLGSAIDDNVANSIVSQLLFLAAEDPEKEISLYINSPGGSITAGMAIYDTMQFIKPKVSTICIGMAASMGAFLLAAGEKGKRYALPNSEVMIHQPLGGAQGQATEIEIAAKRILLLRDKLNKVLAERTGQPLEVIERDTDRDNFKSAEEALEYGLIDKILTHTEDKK
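FRET quenching reversal measured ClpP activation: 10 microg/mL B. subtilis ClpP at pH 8 with the FRET-FV decapeptide, read at 430 nm after 320 nm excitation. The 20-min minus 0-min signal was scaled between DMSO/no-enzyme wells and ADEP (5.8 microM final).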
* marks the source's active call; other numbers are inactive results; ? = inconclusive; / = no result given; [ ] = remark or other dose.

SMILES | Menin-MLL FL inh | CtBP-E1A inh | gsp antag | gsp ag | TRPV1 PAM | Sfp PPTase inh | ClpP mod
CN(C)S(=O)(=O)c1cc(NC(=O)CN2C(=O)NC3(CCCc4ccccc43)C2=O)ccc1Cl (stereo not given) | 3.3 | 6 | 6% | 11% | 1 | 18% | 1.7%
CCCn1c2c(c(O)c(C(=O)NCCCN(CC)CC)c1=O)CCCC2 | 3.0 | 0 | 4% | 2% | 2 | 10% | ?
COc1nc(C)cc(C)c1S(=O)(=O)c1ccccc1 | -4.4 | / | -1% | -13% | 11 | 15% | -1.2%
COc1ccc(N2CCN(C(=O)CNC(=O)c3ccco3)CC2)cc1 | / | -2 | 2% | 4% | 7 | 5% | -10%
CC(C)OCCCNc1ncnc2c1[nH]c1ccccc12 | 1.3 | -9 | ? | 17% | -13 | -17% | 18µM*
O=C(c1cccc(Oc2ccc([N+](=O)[O-])cc2Cl)c1)N1CCCCC1 | -6.9 | -2 | 5% | -28% | -6 | -7% | 0.7%
COc1ccccc1NS(=O)(=O)c1cccc(C(=O)N/N=C/c2ccc3c(c2)OCCO3)c1 | 1.7 | -29 | 5% | 2% | 10 | 8% | 0.5%
CCn1c2ccccc2c2cc(CN3CCN(S(=O)(=O)Cc4ccccc4)CC3)ccc21 | / | 6 | 3% | 6% | -16 | 5% | ?
COc1ccc(CC(=O)Nc2ccc3c(C)cc(=O)oc3c2)cc1OC | 4.9 | 1 | 5% | 0%[15.4 µM] | -16 | 11% | -8.5%
N#Cc1cccc(C(=O)OCc2cccc(S(=O)(=O)N3CCOCC3)c2)c1 | / | 2 | -4% | 4% | 15 | / | -1.3%
Cc1ccc(-c2cc(-c3ccc(F)cc3)c(C#N)c(N)n2)o1 | ? | 3 | -5% | -37% | 1 | ? | /
CC(NC(=O)c1ccco1)C(=O)N(C)Cc1ccc(C(F)(F)F)cc1 (stereo not given) | 0.0 | -15 | 9% | -9%[15.4 µM] | 27 | 7% | -0.4%
CC(Oc1ccc(/C=N/NC(=O)Cc2cccc3ccccc23)cc1)C(=O)O (stereo not given) | 0.4 | 0 | 4% | 3% | 15 | 23% | 0.3%
COC(=O)c1cc(NS(=O)(=O)c2ccc(N3CCOCC3)c(N)c2)cc(C(=O)OC)c1 | 2.1 | 18 | -5% | 0% | 22 | 15% | -6.7%
CC(C)=C[C@@H]1C[C@H](C)[C@H]2CC[C@H](C)c3c(O)c(O)c(C)c1c32 | / | -4 | 5% | / | 0 | / | -4.7%
O=C(CN1C(=O)S/C(=C\C=C\c2ccccc2)C1=O)N1CCCCC1 | / | 1 | 3% | -2% | -3 | 15% | -1.2%
O=[N+]([O-])c1ccc(CSc2nnc(SCc3ccccc3)s2)cc1 | 1.2 | 1 | -7% | -4%[15.4 µM] | 17 | -1% | /
COc1cc(CNc2ccc3[nH]c(=O)[nH]c3c2)ccc1OCc1ccc(C)cc1 | 3.3 | -5 | 2% | -7% | -15 | 1% | /
CC1CCC(NC(=O)c2cc3c(s2)CCCC3)CC1 (stereo not given) | / | 12 | 1% | -10%[15.4 µM] | -6 | / | /
CCN(CC)c1ccc(/C=N/OCC(=O)N2CCCc3ccccc32)cc1 | 0.6 | -27 | -8% | 13%[15.4 µM] | ? | -23% | -1.5%
C/C(=N\N1CCN(c2ccccc2)CC1)c1ccc(O)cc1 | 1.1 | 1 | 9% | -3% | -13 | 8% | 0.5%
CCCCCCNC(=O)C(C#N)c1nc2ccccc2nc1N1CCCC1 (stereo not given) | ? | 2 | 3% | 14% | 0 | 4% | -2.9%
CC(CCc1ccccc1)NC(=O)COC(=O)c1cccc2ccccc12 (stereo not given) | -2.1 | 22 | -5% | -19% | 3 | 7% | 25µM*
COc1ccc2nc(-c3ccco3)c(-c3ccco3)nc2c1 | 5.8 | -2 | -14% | 2% | -1 | 7.1µM* | -14%
Cc1cc(=O)oc2cc(OCC(=O)N3CCOCC3)c(Cl)cc12 | / | 10 | -4% | -13% | / | / | 44%
Nc1nc(SCC(=O)N2CCN(S(=O)(=O)c3ccc(Cl)cc3)CC2)n[nH]1 | -1.1 | 1 | -14% | -11% | -6 | 9% | 1.9%
COC(CNc1ncnc2c1cnn2C)OC | 0.1 | 7 | 0% | -5%[15.4 µM] | 7 | 7% | -1.4%
CC(C)NC(=O)N(C)C[C@H]1Oc2ccc(NC(=O)c3ccncc3)cc2C(=O)N([C@H](C)CO)C[C@@H]1C | / | 0 | -5% | 12% | / | / | -3.4%
c1ccc(C2C3=C(Nc4ncnn42)c2ccccc2CCC3)cc1 (stereo not given) | 1.6 | -10 | -7% | 0% | ? | -10% | -8.8%
O=C(NC1CCCCC1)N1CCNCC1 | 1.7 | -2 | 6% | 3%[15.4 µM] | 1 | 22% | -2.2%
CCC(=O)Nc1cccc(NC(=O)c2cc3ccccc3o2)c1 | -6.1 | 0 | -3% | 10% | -13 | 0% | -0.6%
Cc1cc2oc(=O)cc(-c3ccccc3)c2c(C)c1-c1ccc(OC(F)(F)F)cc1 | -0.7 | 9 | 5% | / | / | -6% | -6.9%
O=C(c1ccc(COc2ccccc2[N+](=O)[O-])o1)N1CCCCC1 | -0.6 | 0 | -28% | -19% | -12 | 16% | 0.3%
COc1ccc(O)c(-c2cc(-c3cccs3)[nH]n2)c1 | -0.3 | -27 | -13% | -7% | -5 | -18% | -9.0%
O=c1c2ccccc2nc2n1C(CSc1ccc(Cl)cc1)CN2 (stereo not given) | -1.9 | -1 | -4% | -19% | -3 | 18% | -5.0%
O=C1c2ccccc2C(=O)N1CCC1(O)C(c2ccccc2)=Nc2ccccc21 (stereo not given) | / | 2 | -5% | / | / | / | -1.3%
CCOC(=O)C1=NN(c2ccc(OC)cc2)C(c2ccccc2)CC1=O (stereo not given) | 4.4 | -5 | -15% | -2% | -5 | -6% | 1.5%
O=C(Cn1nnc2ccccc2c1=O)NC1CCCCC1 | / | 1 | 0% | 28%[15.4 µM] | 3 | 14% | /
Cc1cc(C)n(-c2nc3ccccc3nc2N2CCN(S(=O)(=O)c3ccc(F)c(C)c3)CC2)n1 | -3.5 | 8 | 2% | -7% | 1 | 16% | -0.1%
C#CCN(CC=C)C(=O)c1cccc(OC2CCN(S(C)(=O)=O)CC2)c1 | 2.0 | -3 | 0% | -7% | 0 | 21% | /
CC1CC(C)CN(C(=O)COC(=O)c2ccc3c(c2)OCO3)C1 (stereo not given) | / | -15 | 9% | 15% | 7 | / | -27%
CCN(CC)CCNC(=O)CNC(=O)c1nn(-c2ccc(OC)cc2OC)c(=O)c2ccccc12 | 0.1 | / | 8% | 1% | ? | -29% | -2.1%
N#CC(C#N)=C1C=C2C=C(N3CCCCCC3)CCC2CC1 (stereo not given) | ? | / | ? | -5% | -6 | 2% | -1.1%
C=CCc1c(C)nc(SC)nc1Nc1ccccc1 | -0.5 | -1 | ? | -4% | 12 | -46% | -2.5%
Cc1cc(C(=S)N2CCOCC2)c(C)n1-c1ccc(Cl)cc1 | / | -9 | -3% | ? | ? | -9% | -1.8%
O=C(NC1CC1)c1ccc(NC(=O)C2CCCCC2)cc1 | / | 3 | 9% | / | / | / | 1.9%
[O-][n+]1cccc2c(Br)cc(Br)c(O)c21 | -0.5 | ? | 6% | -88%[inhibitor] | 15 | -20% | /
Cc1ccc(C(=O)C2C(c3cccs3)NC(=O)NC2(O)C(F)(F)F)cc1 (stereo not given) | 4.2 | -3 | -4% | ? | -7 | 1% | 0.4%
CC(C)Oc1ccc(C(=O)NCC(=O)O)cc1 | 0.3 | 7 | 2% | 18%[15.4 µM] | -6 | 24% | /
COCC1OS(=O)(=O)NC(CC(=O)SC(C)(C)C)C1C (stereo not given) | -4.1 | / | 10% | 27% | 0 | 3% | -0.8%
COc1cccc(C2NC(=O)NC(C)=C2C(=O)Nc2cccc(C)c2C)c1 (stereo not given) | -2.5 | -4 | 2% | 12% | -1 | 1% | -3.9%
Cc1nc2ccc(NC(=O)c3nn(C(C)C)c(=O)c4ccccc34)cc2s1 | 1.6 | -2 | -6% | -15%[15.4 µM] | 2 | 5% | 0.5%
COc1ccccc1-c1nnc2sc(COc3ccc(F)cc3)nn12 | 0.2 | 7 | -4% | 0%[15.4 µM] | -5 | -24% | 0.1%
Cc1ccc(N(CC(=O)Nc2ccc(-c3nc4ccc(C)cc4s3)cc2)S(C)(=O)=O)cc1 | 2.0 | 2 | -4%[15.4 µM] | 9% | 12 | 8% | 11µM*
COCCNC(=O)C(c1cccc(OC)c1)N(C(=O)Cn1nnc2ccccc21)c1cccnc1 (stereo not given) | 5.1 | 3 | -21% | -6% | 2 | 12% | -1.2%
Cn1ncc(Cl)c(Oc2ccc(Cl)cc2)c1=O | 1.0 | 12 | -8% | ? | 3 | 12% | 1.2%
CCn1c(C(C)NC(=O)Cc2ccccc2)nc2ccccc21 (stereo not given) | 0.3 | -18 | 6% | -23% | -1 | 10% | -1.0%
CCS(=O)(=O)c1ccc2oc(Nc3ccccc3Br)nc2c1 | 0.5 | 0 | -11% | 3%[15.4 µM] | 3 | 15% | /
CC(C)CNC(=O)c1c(F)c(F)c(F)c(F)c1F | 4.9 | 12 | -4% | ? | -21 | 11% | /
CCCCSc1nnc(CCCCCNC(=O)OC(C)(C)C)o1 | 0.2 | -6 | 35µM* | 4% | -14 | 2% | 0.1%
